Screening data: PubChem BioAssay, National Center for Advancing Translational Sciences (NCATS)
PK Bst = Pyruvate Kinase; 1.2% of 51,000 active; Potency, µM; partly purified Bacillus stearothermophilus pyruvate kinase, luminescence ATP production; ribose 5-phosphate activator present at AC10; in the data active means potency below about 11 µM; inconclusive means mostly about 12 µM to 25 µM; inactive means weaker than that;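 the screen sought inhibitors and activators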;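 also: potency is read from the fitted curve at half-maximal effect; scaled between full activation by ribose 5 phosphate and full inhibition by luteolin; about four in five hits inhibit and the cells do not say which; series up to 57 µM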
YjeE inh = qHTS Assay for Inhibitors of YjeE; 0.05% of 71,000 active; tRNA threonylcarbamoyladenosine biosynthesis protein TsaE (Escherichia coli (strain …; purified YjeE, fluorescence polarisation of a bound ADP probe; Potency, µM; active = well fitted falling curve; inconclusive = weaker or top-dose-only fall, or a rising curve; inactive = flat or poorly fitted curve;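 also: top concentration of the series not given in the record; excess ADP was the control for the full effect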
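Purified YjeE (10 uM) with BODIPY Texas Red-labeled ADP probe (2 uM); compounds pin-transferred, 15 min at room temperature. Binding inhibition read as decreased fluorescence polarization; ADP titration as control.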
The depositor's hits bear a star; i = inactive; ? = inconclusive; . = no result given.

SMILES	PK Bst	YjeE inh
COc1ccc(OC)c(S(=O)(=O)N(C)CC(=O)N2CCN(c3cccc(Cl)c3)CC2)c1	>57	i
O=C(Nc1ccc(N2CCN(C(=O)c3ccc(Cl)cc3)CC2)cc1)c1cccnc1	?	i
COC(=O)CCSCC(=O)Nc1nnc(C)s1	.	i
CCOCCCNC(=O)C1CCCN1S(=O)(=O)c1ccc(Cl)cc1 (centres undefined)	>57	i
CCCn1c(=NC(=O)c2ccc3c(c2)OCO3)c(C#N)cc2c(=O)n3cccc(C)c3nc21	>57	i
CSc1ccc(S(=O)(=O)NCc2ccc(Cl)cc2)cc1	>57	i
Nc1ccc(CN2CCN(c3ccc4ccccc4n3)CC2)cc1	>57	i
O=C(Cc1ccc(Cl)c(Cl)c1)OCC(=O)c1ccc[nH]1	?	i
CCCCn1c(SCc2ccc(Cl)cc2)nc2c1c(=O)[nH]c(=O)n2C	>57	i
COc1ccccc1CNc1ncnc2ccc(-c3ccc(C(=O)N(C)C)cc3)cc12	.	i
Cc1cc(N(C)C)nc(SC(C)C)n1	>57	i
CCOc1cc(C)c(C(C)C)cc1S(=O)(=O)N1CC(C)OC(C)C1 (centres undefined)	>57	i
COc1ccc(C)cc1-n1nnnc1SCc1cc(=O)n2cc(C)ccc2n1	>57	i
O=c1ccc2ccc(O)c(O)c2o1	.	i
COc1cccc(Oc2cnc(N)nc2-c2ccc(OC)cc2O)c1	>57	i
COCCNS(=O)(=O)c1cc(F)ccc1OC	>57	i
N#CC1=C(N)C(C#N)(C#N)C2(CCC3(CC2)OCCO3)C2CC3(CC=C12)OCCO3 (centres undefined)	>57	i
CCCC(=O)c1cc(F)c(N2CCN(S(=O)(=O)c3ccccc3)CC2)cc1C	.	i
COc1ccc(CCNC(=O)CN(C2CCCCC2)S(C)(=O)=O)cc1OC	>57	i
O=C(CSc1nc2ccccc2c(=O)[nH]1)N1CCOCC1	>57	i
CC(C)(C)NC(=O)NC(=O)COc1ccccc1C#N	i	i
CCCn1c(-c2ccc(F)cc2)nc2c(NCCCN(C)C)nc(C)nc21	.	i
N#CC1=C2SCN(Cc3ccco3)CN2C(=O)CC1c1ccc(Cl)cc1 (centres undefined)	?	i
Cc1ccc(S(=O)(=O)N2CCN(S(C)(=O)=O)C2)cc1	>57	i
CCn1c(SCC(=O)Nc2nnc(C)s2)nnc1-c1ccncc1	>57	i
Cc1ccc(Oc2nc3c(c(=O)n(Cc4ccccc4F)c(=O)n3C)n2C)cc1	>25.6	.
CC(C)(C)[Si](C)(C)c1c2c(nc3ccc(OCc4ccccc4)cc13)-c1cccc(=O)n1C2	.	i
O=C(O)/C=C\c1c2ccc(=O)c(O)c-2oc2c(O)c(O)ccc12	.	?
CC(C)C(=O)Nc1ccc(C(=O)NCc2cccnc2)cc1	>57	i
Cc1ccc(-c2cc(-c3ccccc3Cl)[nH]n2)c(O)c1	.	i
CC1C2CC(C(CN(C)C)/C2=N/O)C1(C)C (centres undefined)	.	i
CCOC(=O)C1=C(C)Nc2nc(C)nn2C1c1cc(OC)ccc1OC (centres undefined)	.	i
Cn1c(CNc2nc(-c3ccccc3)cs2)nnc1SCC(=O)OC1CCCCC1	>57	i
O=C(O)CC/C=C\CC[C@H]1[C@@H](N2CCCCC2)[C@@H](O)C[C@@H]1OCc1ccc(-c2ccccc2)cc1	.	i
CN(C)/C=c1\sc2c(C#N)cc(C(=O)c3ccc(Br)cc3)n2c1=O	>57	i
Cc1nc2c3c(-c4ccccc4)nc(N4CCOCC4)nc3nn2c(C)c1CCC(=O)O	>57	i
Cc1cc(NC(=O)CSc2nnc(-c3ccc(Cl)s3)o2)no1	>57	i
Cc1ccc(C(=O)Nc2ccc3c(c2)OCO3)cc1S(=O)(=O)N1CCCC1	>57	i
O=C(CSc1nc2ccccc2s1)N1CCN(C(=O)c2ccco2)CC1	>57	i
Cn1c(=O)[nH]c(=O)c2c1nc1n2CCCS1	>57	i
C[C@@H](N)/C(N)=N/O	.	i
CCOC(=O)C(C(=O)OCC)N(C#N)c1nc(SC)nc(N(C)C)n1	>25.6	.
CNS(=O)(=O)c1cccc2cccnc12	.	i
O=C(OCCN1C(=O)CCC1=O)c1ccc(S(=O)(=O)N2CCCCC2)cc1	>57	i
Cc1cc(C(=O)Nc2sc(C)c(C)c2C#N)c(C)o1	>57	i
Cc1ccc(-c2noc(CCCC(=O)Nc3cccnc3)n2)cc1	>57	i
Cc1cc(N2CCN(C)CC2)nc2ccc(NC(=O)CCC(=O)NCc3ccco3)cc12	>57	i
COc1ccc(N2CCN(C(=O)CNC(=O)Cn3c(C)cc4ccccc4c3=O)CC2)cc1	>57	i
Cc1cccc(-c2nc(CS(=O)CC(=O)NCCCSC3CCCCC3)c(C)o2)c1 (centres undefined)	>57	i
CCC1CCCCN1C(=O)N[C@@H](CCSC)C(=O)OC (some centres undefined)	>57	i
Cc1cccc(N(CC(=O)NCc2ccccc2)C(=O)Cn2nnc(-c3ccc(C)o3)n2)c1	>57	i
COc1ccc(C2(O)CCN(C(=O)NC3CCCCC3)CC2)cc1	>57	i
CCCCNC(=O)C(c1ccc(OCC(=O)OC)c(C(=O)OC)c1)N(Cc1ccccc1)C(=O)CCCCCN1C(=O)NC(c2ccc(-c3ccccc3)cc2)C(C(=O)OCc2ccccc2)=C1C (centres undefined)	.	i
CCN1C(=O)CSc2ccc(C(=O)NCCCN3CCOCC3)cc21	>57	i
C=CCn1c(Br)nc2c1c(=O)n(C)c(=O)n2C	>57	i
CCOc1ccccc1N1CCN(S(=O)(=O)c2cccs2)CC1	>57	i
COc1ccccc1NC(=O)c1ccc(NC(=O)CSc2nnnn2C)cc1	>57	i
CC(C)c1c(C#N)c(N)nc(SCC(=O)c2cc3ccccc3oc2=O)c1C#N	>57	i
CCOC(=O)CN(C(=O)CN1CCOCC1)c1ccc(Br)cc1	>57	i
COc1ccc(CCNC(=O)C2CC(=O)N(c3ccccc3)C2)cc1OC (centres undefined)	.	i

Looked up by compound from the list above:
SMILES	PK Bst	YjeE inh
CC(C)c1c(C#N)c(N)nc(SCC(=O)c2cc3ccccc3oc2=O)c1C#N	>57	i
CCOC(=O)CN(C(=O)CN1CCOCC1)c1ccc(Br)cc1	>57	i

Later entries
SMILES	PK Bst	YjeE inh
CC1Cc2ccccc2N1C(=O)COC(=O)c1ccc(S(=O)(=O)N(C)C)cc1 (centres undefined)	>57	i
Nn1c(SCC(=O)NC2CCCc3ccccc32)nnc1-c1cccs1 (centres undefined)	.	i
O=C1CC(N2CCN(C/C=C/c3ccccc3)CC2)C(=O)N1Cc1ccc(N2CCCC2=O)cc1 (centres undefined)	>57	i
CCCOc1ccc(Cn2cnc3ccccc32)cc1	>57	i
COCc1nc(-c2cc(OC)c(OC)c(OC)c2)no1	>57	i
COc1cc(N2CN=c3s/c(=C\c4ccccn4)c(=O)n3C2)cc(OC)c1OC	.	i
CCOC(=O)c1c(C)oc(NC(=O)COc2ccc(Cl)cc2C)c1C#N	>57	i
Cc1cc(OC(=O)c2ccccc2)n(CCC#N)n1	>57	i
CC(C)COC(=O)C(C#N)c1nc2ccccc2nc1N1CCN(Cc2ccc3c(c2)OCO3)CC1 (centres undefined)	>57	i
CN(Cc1ccco1)c1ncnc2ccc(-c3ccccc3Cl)cc12	.	i
O=C(OCC1CO1)C1CCCCC1C(=O)OCC1CO1 (centres undefined)	.	i
N#Cc1nc(-c2cccs2)oc1NCc1ccccc1	>25.6	.

In another format: results already given
| Compound | PK Bst | YjeE inh |
| --- | --- | --- |
| O=C1CC(N2CCN(C/C=C/c3ccccc3)CC2)C(=O)N1Cc1ccc(N2CCCC2=O)cc1 (centres undefined) | >57 | i |
| Cc1cc(OC(=O)c2ccccc2)n(CCC#N)n1 | >57 | i |
| O=C(OCC1CO1)C1CCCCC1C(=O)OCC1CO1 (centres undefined) | . | i |
| CCCOc1ccc(Cn2cnc3ccccc32)cc1 | >57 | i |
| CC(C)COC(=O)C(C#N)c1nc2ccccc2nc1N1CCN(Cc2ccc3c(c2)OCO3)CC1 (centres undefined) | >57 | i |
| COc1cc(N2CN=c3s/c(=C\c4ccccn4)c(=O)n3C2)cc(OC)c1OC | . | i |

(next part)
SMILES	PK Bst	YjeE inh
O=C(c1ccc(Cl)cc1)c1ccc(OCC(=O)N2CCOCC2)cc1	>57	i
CC(=O)OC(C(=O)NC1CCCCC1)c1ccncc1 (centres undefined)	>57	i
CN(C(=O)c1ccncc1)c1nnc(-c2ccncc2)s1	>57	i
O=C1CC(N2CCOCC2)C(=O)N1c1cc(Cl)cc(Cl)c1 (centres undefined)	.	i
COc1ccc(CNC(=O)c2cc(C3CC3)on2)cc1	.	i
COc1cc(S(=O)(=O)N2CCN(Cc3ccccc3)CC2)ccc1Br	>57	i
Cc1cccc(N(CC(=O)NC2CCCCC2)C(=O)CCC(=O)Nc2cc(C)ccn2)c1	>57	i
COc1ccc(S(=O)(=O)NCCSC(C)(C)C)cc1Cl	>57	i
O=C(O)c1ccc(S(=O)(=O)c2ccccc2)cc1	>57	i
COc1ccc(CCC(=O)N2CCN(C3CCCCC3)CC2)cc1	>57	i
COc1cc(C[C@H]2C(=O)OC[C@@H]2Cc2ccc(OC)c(OC)c2)ccc1O	.	i
COc1ccc(OC)c(NC(=O)Nc2ccccc2C)c1	.	i
Cn1c(Cc2ccccc2)nnc1SCC(=O)c1ccc(Br)s1	>57	i
CCOC(=O)C1CCN(C(=O)c2sc3nc(-c4ccc(F)cc4)cn3c2C)CC1	>57	i
CCCCc1c(O)nc(SCC(=O)N2CCOCC2)[nH]c1=O	>57	i
COc1ccc(C(=O)Nc2cccc(C(=O)N3CCN(C)CC3)c2)cc1	>57	i
Cc1[nH]c2ccccc2c1C(=O)CN1CCCCC1C (centres undefined)	>57	i
O=C(NCc1ccccn1)c1nnc(Cc2ccc(Cl)cc2)o1	.	i
O=C(Nc1ccccc1Cl)NC1(C(=O)NCCCN2CCOCC2)CCCCC1	>57	i
O=C(c1csnn1)N1CCC[C@@]2(CCN(c3ccccn3)C2)C1	.	i
Cc1ccc(SCC(=O)N2CCOCC2)cc1	>57	i
Nc1nc(N2CCCCC2)nc2ccccc12	8.46*	i
Cc1cc2c(cc1C)NC(c1cccnc1)C1=C(CC(C)(C)CC1=O)N2 (centres undefined)	>57	i
CCOc1ccc(N2C(=O)CC(N3CCN(c4ccc(C(=O)c5ccncc5)cc4)CC3)C2=O)cc1 (centres undefined)	>57	i
Cc1ccc(S(=O)(=O)N(Cc2ccc(F)cc2)Cc2ccco2)cc1	>57	i
Cc1ccc(CNC(=O)CN(C)S(=O)(=O)c2cccc3cccnc23)cc1	.	i
CCOCCc1nnc(NC(=O)c2ccc(OC)c(OC)c2)s1	>57	i
O=C(Cn1nnc(-c2ccncc2)n1)N1CCc2ccccc21	>57	i
CCOC(=O)C1CCCN(C(=O)c2ccc(OCC)cc2)C1 (centres undefined)	.	i
O=C(NCc1cc(F)cc2c1OCCO2)[C@H]1C[C@@H]1[C@H](NP(=O)(c1ccccc1)c1ccccc1)c1ccccc1	.	i
Cc1ccc(Nc2oc(C)nc2C#N)cc1	>57	i
O=c1nc(C(F)(F)F)nc2ccccn12	>57	i
CN(c1ccccc1)S(=O)(=O)c1cc(C(=O)N2CCN(c3ccccn3)CC2)ccc1Cl	>57	i
Cc1nn(Cc2ccc(C(=O)NC3CCCCC3)o2)c(C)c1Br	>57	i
COC(=O)C1=C(C(=O)c2ccc(C)cc2)C(c2ccc(O)c(OC)c2)n2nnnc2N1 (centres undefined)	>57	i
COc1ccc(NC(=O)Cn2nnc(-c3ccccc3F)n2)cc1	>57	i
O=C(O)CC1Sc2ccccc2NC1=O (centres undefined)	.	i
CCSc1nnc(NC(=O)CSc2nnc(Cc3cccn3C)n2-c2ccc(C)cc2)s1	>57	i
CCOC(=O)C1CCCN(Cc2ccc3c(c2)OCO3)C1 (centres undefined)	>57	i
C=CCn1c(O)c(C(CC)=NCCN2CCOCC2)c(=O)[nH]c1=O	>57	i
O=C(CN1CCOCC1)Nc1ccc(S(=O)(=O)N2CCCCCC2)cc1	?	i
CC(C)[C@H](NC(=O)NCc1ccco1)C(=O)O	>57	i
Cn1cc(Cl)c(C(=O)N(Cc2ccccc2)c2ccccn2)n1	.	i
O=C(NC1CCCCC1)N1CCC(c2nc3ccccc3[nH]2)CC1	>57	i
Cc1cccc(C)c1N1C(=O)c2ccccc2C1=O	.	i
CCn1c(SCC(=O)Nc2cccc(NC(=O)c3cccs3)c2)nnc1-c1ccncc1	>57	i
O=C(CSc1nc2cc(Cl)ccc2s1)NC(=O)NCc1ccco1	>57	i
CC1CCCCC1NC(=O)c1ccc(CNc2c(N3CCCC3)c(=O)c2=O)cc1 (centres undefined)	.	i

Compounds above containing a tert-butyl group, in the order listed:
SMILES	PK Bst	YjeE inh
CC(C)(C)NC(=O)NC(=O)COc1ccccc1C#N	i	i
CC(C)(C)[Si](C)(C)c1c2c(nc3ccc(OCc4ccccc4)cc13)-c1cccc(=O)n1C2	.	i
COc1ccc(S(=O)(=O)NCCSC(C)(C)C)cc1Cl	>57	i

The results go on.
SMILES	PK Bst	YjeE inh
Cn1c(=O)n(CC(=O)Nc2cccnc2)c2ccccc21	>57	i
CCOC(=O)c1cc(CN2CCOCC2)oc1-c1ccccc1	>57	i
O=C(c1ccco1)N1CCN(C2CCCC2)CC1	.	i
COc1ccccc1CN(Cc1cc2cc(C)ccc2[nH]c1=O)Cc1nnnn1Cc1ccco1	>57	i
CC1CCCCN1C(=O)CSc1nnc(-c2ccc(Cl)s2)o1 (centres undefined)	>57	i
NCCNS(=O)(=O)c1cccc2c(Cl)cccc12	.	i

This is a subset. The share of hits here may be higher or lower than overall.
